# ClpP mod – qHTS Assay for Activators of ClpP. ATP-dependent Clp protease proteolytic subunit (Bacillus subtilis (strain 168)), P80244. purified B. subtilis ClpP, FRET peptide cleavage, 20 min. Potency, µM (titrated, usually from 57.5 µM), for inactives: at the top dose activity change, negative = active. 340,000 compounds, 1.9% hits; active = well fitted falling curve with a large enough effect; inconclusive = small, poorly fitted or top-dose-only effect; inactive = no such curve, though single readings can be large or run the other way; note: the source files actives as falling curves though it sought activators and does not explain the sign; nearly all actives have a fitted effect of over 65% in size; many hits overshoot -100%
# Target sequence (P80244 whole entry, looked up): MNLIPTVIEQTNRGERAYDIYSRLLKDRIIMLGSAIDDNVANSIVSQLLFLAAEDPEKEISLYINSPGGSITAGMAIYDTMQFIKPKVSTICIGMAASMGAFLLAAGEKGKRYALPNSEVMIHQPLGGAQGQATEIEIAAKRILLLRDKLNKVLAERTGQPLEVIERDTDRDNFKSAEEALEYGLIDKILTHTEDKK
#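 ClpP 10 microg/mL final, pH 8 Tris/KCl buffer with BSA, glycerol, Tween-20; compound pinned in; FRET-FV substrate; RT 20 min; Ex320/Em430; ΔFRET vs ADEP 5.8 microM, DMSO, no enzyme.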
# PINK1 expr mod – changes PINK1 expression | PINK1 immunofluorescence, high-content cytometry, 24 h | 410,000 compounds, 0.2% hits | AID 624263 | Potency, µM (titrated, usually from 76.6 µM), for the others: at the top dose activation (PINK1 increase), usual class: activators; active = well fitted activation curve with a large enough effect; inconclusive = small, poorly fitted or top-dose-only effect; inactive = flat fitted curve, though single readings scatter; cell line not stated here;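 note: % of control where 0% means no effect; nearly all actives have a fitted effect of over 65% in size; a mitochondrial uncoupler was the plate control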
#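 PINK1 protein level read as immunofluorescence by microplate cytometer in a fixed, stained stable cell line after 24 h exposure to five compound concentrations, with CCCP as control.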
# * hit, by the source's call; ? = inconclusive. Potency is the fitted concentration of half-maximal effect. Some of the compounds tested; rates above refer to the full screens.
SMILES,ClpP mod,PINK1 expr mod
Cc1cccc(NC(=O)c2oc3ccccc3c2NC(=O)Cc2coc3ccc(C(C)C)cc23)c1,4.1%,0.5%
CCOc1ccc(NC(=O)CCn2c(=O)c3cccn3c3cccnc32)cc1,35%,-0.1%
COc1ccccc1NC(=O)CSCc1cc(=O)c2c(C)cc(C)cc2[nH]1,-1.7%,1.7%
CCCN(C(=O)Cn1ncc2c1-c1ccccc1OC2)c1cccc(C)c1,-4.7%,-1.1%
Nc1ccc2c(c1)C(=O)N(c1ccc3ccccc3c1)C2=O,-3.8%,-1.2%
O=C(NCCc1ccc(Cl)cc1)c1cnc2sc(N3CCCC3)nn2c1=O,-23%,1.3%
COc1ccccc1N1CCN(Cc2cc(COC(C)C)c3cccnc3c2O)CC1,1.1%,4.9%
Cc1ccc(C)c(NC(=O)C2CCCN(c3ncnc4onc(C)c34)C2)c1 (stereo not given),-8.7%,1.1%
CC1C(=O)N2CCCc3cc(S(=O)(=O)Nc4ccc(Br)cc4F)cc1c32 (stereo not given),0.3%,0.0%
CCOc1ccc(NC(=O)Cn2c(CCC(=O)O)ccc2-c2ccc(C)cc2)cc1,-5.5%,0.4%
Cc1ccccc1NC(=O)[C@H](CSCc1ccccc1)N1Cc2ccccc2C1=O,-4.3%,1.1%
COc1ccc2c(c1)CCc1sc(NC(=O)c3ccc(Br)cc3)nc1-2,-21%,1.9%
CCOc1ccccc1CNC(=O)C1CCN(C2=NS(=O)(=O)C(c3ccc(C)c(C)c3)=C2C)CC1,3.7%,4.8%
Cc1ccc2[nH]c(CSc3nnc(C)s3)cc(=O)c2c1,-0.3%,2.1%
N#Cc1ccc(-c2cccs2)nc1SCc1c(F)cccc1Cl,4.1%,19%
Cc1ccc(C(=O)Nc2cc3nn(-c4ccccc4)nc3cc2Cl)c(C)c1,2.5%,0.4%
Cc1cc(C)cc(-n2c(SCC(=O)N3CCCCCC3)nc3c([nH]c4ccccc43)c2=O)c1,-3.6%,-0.6%
COc1ccc(Cn2c(CO)cnc2SCc2ccc(F)cc2)cc1,-4.5%,-4.6%
COc1cccc(C2C(C(=O)Nc3ccc(C)cc3C)=C(C)Nc3c(C(=O)Nc4ccccc4)cnn32)c1 (stereo not given),-28%,-6.7%
Cc1cc(=O)[nH]c2nnc(SCc3ccc(C(F)(F)F)cc3)n12,3.5%,19%
CCCc1ccc(OCC(=O)Nc2sc3c(c2C(=O)OC)CCCCC3)cc1,-16%,-0.8%
COc1cc(OC)cc(-c2nc3n(n2)C(c2ccccc2F)C(C(=O)Nc2cccnc2)=C(C)N3)c1 (stereo not given),-12%,1.1%
COc1ccc(Cn2c(C(=O)O)c(CNCCc3cccs3)c3ccc(C)cc32)cc1,-8.6%,17%
COc1cccc(-n2c(SCC(=O)N3CCc4ccccc43)nc3c([nH]c4ccccc43)c2=O)c1,-2.9%,-1.3%
COc1ccc(-c2cc(C(=O)NCCc3ccc(Cl)cc3)[nH]n2)cc1,2.1%,2.3%
CCC(C)NC(=O)c1sc2nc(C)c(C(=O)Nc3ccc(C)cc3C)c(-c3ccc(Cl)cc3)c2c1N (stereo not given),-2.9%,0.8%
CCC(=O)N1CCc2cc(Br)cc(S(=O)(=O)N3CCC(C(=O)N(CC)CC)CC3)c21,-4.4%,1.0%
Cc1ccc(CNC(=O)CSc2nc(=O)n(Cc3ccco3)c3c2CCC3)cc1,-0.3%,-0.3%
Cc1ccccc1Nc1cc(C(=O)NC2CCCCC2)c2ccccc2n1,-23%,7.5%
CCOC(=O)c1cc(-c2ccccc2)n(-c2cccc(C(=O)N(CC)c3ccccc3)c2)c1C,-1.8%,2.4%
CC(=O)c1cccc(NC(=O)c2sc(-n3nc(C)c(Cc4ccccc4)c3C)nc2C)c1,?,0.7%
CC(=O)c1ccc(N2CCN(S(=O)(=O)c3cc(-c4onc(C)c4C)ccc3C)CC2)cc1,-7.2%,2.3%
Cc1nc(-c2cccc(NC(=O)Nc3ccc([N+](=O)[O-])cc3)c2)no1,-2.6%,?
CCOc1ccc(NC(=O)CSc2oc(-c3ccco3)nc2S(=O)(=O)c2ccc(C)cc2)cc1,-2.8%,2.8%
Cc1cccc(N2CCN(C(=O)c3cc4c(=O)oc5ccccc5c4s3)CC2)c1C,-5.1%,2.8%
COCCCNC(=O)c1sc2nc(C)c(C(=O)Nc3ccc(C)cc3C)c(-c3ccc(Br)cc3)c2c1N,-11%,3.5%
COc1ccc(NC(=O)C2c3ccccc3OCC(=O)N2Cc2cccnc2)cc1 (stereo not given),-6.3%,-0.7%
COc1cccc2cc(-c3cn4c(n3)sc3cc(F)ccc34)c(=O)oc12,?,1.9%
COc1ccc(C2c3cc(OC)c(OC)cc3CC(=O)N2c2ccc(C)cc2)cc1 (stereo not given),4.5%,7.5%
CCOC(=O)[C@]12CCCC=C1N(Cc1ccco1)C(=O)[C@H](CC(=O)N1CCCC1)C2,-3.1%,-0.3%

# Single records, from the list above. Screens in order: ClpP mod | PINK1 expr mod
# Results for `Cc1nc(-c2cccc(NC(=O)Nc3ccc([N+](=O)[O-])cc3)c2)no1` : -2.6% | ?
# Results for `Cc1ccc(CNC(=O)CSc2nc(=O)n(Cc3ccco3)c3c2CCC3)cc1` : -0.3% | -0.3%

# Continuation:
SMILES,ClpP mod,PINK1 expr mod
O=C(O)c1cccc(Nc2ncnc3scc(-c4ccccc4)c23)c1,-7.1%,-4.3%
CCOc1ccc(NC(=O)Cn2c(C)ccc(C#N)c2=O)cc1,-30%,2.0%
Cc1ccc(C2C(=O)N(C3CCCCCC3)CC(=O)N2CCC2=CCCCC2)cc1 (stereo not given),-0.2%,?
Cc1ccc(NC(=O)Nc2nnc(SCC(=O)Nc3ccc(F)cc3F)s2)cc1,0.9%,0.6%
CC(C)(C)OC(=O)N1CCC(c2c(C(=O)NCc3ccco3)cnn2-c2ccc(F)cc2F)CC1,0.9%,0.8%
CCOC(=O)C1CCCN(C(=O)c2ccc3c(c2)N(Cc2ccc(Cl)cc2)C(=O)c2ccccc2S3=O)C1 (stereo not given),-1.6%,2.9%
Cc1cccc(NC(=O)C2CCC(CNS(=O)(=O)c3csc(C(N)=O)c3)CC2)c1C (stereo not given),0.2%,2.4%
O=C(Nc1ccc(O)c(-c2nc3ccccc3o2)c1)c1ccc(Br)cc1,-1.9%,0.3%
COC(=O)c1sccc1S(=O)(=O)N(CC(=O)Nc1ccc(C)cc1)c1ccccc1,1.2%,-0.5%
COc1ccc(-c2nnc(SCc3cccc(Cl)c3)o2)cc1,1.5%,-0.2%
CCc1ccccc1NC(=O)C1(C)Cc2ccccc2C(=O)O1 (stereo not given),-2.5%,-3.7%
O=C(COc1ccccc1)NCc1ccc2c(c1)CCN2C(=O)c1ccccc1,0.6%,0.3%
O=C(CN1C(=O)COc2ccc(S(=O)(=O)NC3CCCC3)cc21)NCc1ccc(Cl)cc1,1.2%,1.8%
COc1cccc(CCOC(=O)c2c(-c3ccsc3)oc3c2C(OC(C)=O)CCC3)c1 (stereo not given),?,-0.6%
COc1ccccc1N1CCN(C(=O)Cn2cnc3sc(C)c(S(=O)(=O)N4CCC(C)CC4)c3c2=O)CC1,0.5%,2.2%
CCCCc1ccc(NC(=O)CSc2nc3ccccc3nc2N2CCOCC2)cc1,-4.9%,0.8%
COc1cc2c(cc1OC)C(COc1ccc(F)cc1)N(C(=O)c1cccc(F)c1)CC2 (stereo not given),-2.5%,-3.5%
COc1cccc(CNCCSc2nnnn2-c2ccccc2)c1OC,-0.6%,-0.5%
COc1cccc(CN(Cc2ccco2)c2cnc(S(C)(=O)=O)nc2C(=O)Nc2cccc(Cl)c2C)c1,-7.9%,-0.1%
Cc1sc2ncn(CC(=O)N3CCN(c4ccc(F)cc4)CC3)c(=O)c2c1S(=O)(=O)N1CCC(C)CC1,0.7%,1.1%

# Some of the entries so far, with bars between the fields:
structure | ClpP mod | PINK1 expr mod
COc1cccc(CN(Cc2ccco2)c2cnc(S(C)(=O)=O)nc2C(=O)Nc2cccc(Cl)c2C)c1 | -7.9% | -0.1%
CCc1ccccc1NC(=O)C1(C)Cc2ccccc2C(=O)O1 (stereo not given) | -2.5% | -3.7%
COc1ccc(-c2nnc(SCc3cccc(Cl)c3)o2)cc1 | 1.5% | -0.2%

# Next section
SMILES,ClpP mod,PINK1 expr mod
COc1ccc(-c2oc3c(c2C#CC(C)(C)O)C(OC)CCC3)cc1 (stereo not given),4.7%,1.7%
O=C(Cn1cc(SCc2ccc(C(F)(F)F)cc2)c2ccccc21)N1CCCCCC1,1.5%,1.5%
Cc1cccc(N2CCN(C(=O)Cn3nc(C)c4sc5ccccc5c4c3=O)CC2)c1C,-1.2%,0.2%
O=C(NCC(c1ccc2c(c1)OCO2)N1CCN(c2ccccc2)CC1)c1ccc(F)c(F)c1 (stereo not given),-1.4%,-0.7%
CC(C)(C)n1cnc2cc(NCc3ccccc3Cl)ccc21,-13%,0.9%
COc1cc(C(CC(=O)Nc2cccc(C(C)=O)c2)N2Cc3ccccc3C2=O)cc(OC)c1OC (stereo not given),-2.5%,-5.2%
CCOc1cccc(C2c3c(oc4cc(C)c(C)cc4c3=O)C(=O)N2c2nc(C)c(C)s2)c1 (stereo not given),-3.9%,-0.4%
CCCn1c(SCC(O)c2cccc(OC)c2)nc2ccccc21 (stereo not given),0.5%,0.2%
Cc1ccccc1-c1nc(CN2CCC(C(=O)NC(C)C)CC2)c(C)o1,-1.9%,4.3%
O=c1c2oc3ccccc3c2n(Cc2ccccc2Cl)c(=O)n1Cc1ccc2c(c1)OCO2,-1.4%,1.1%
COc1ccc(NC(=O)CSCc2cnn(-c3ccccc3)c2-n2cccc2)cc1,-1.7%,-0.1%
Cc1ccc(N2CC(NC(=O)C3CC3)CC2=O)cc1C (stereo not given),0.2%,0.8%
CC(=O)N1CCc2c(sc3c2c(=O)n(Cc2ccccc2)c(=O)n3Cc2cccc(Cl)c2)C1,-4.9%,0.7%
CCOc1ccc(NS(=O)(=O)c2ccc(-c3cc(C)no3)s2)cc1,-0.5%,1.1%
COc1cccc(C(=O)N2CCN(CCc3ccncc3)CC2)c1,-0.5%,-0.6%
Cc1ccc(-n2nc(CO)c(C(=O)NCCCc3ccccc3)n2)cc1,22µM*,-0.7%
CCCCOc1ccc(CC(=O)NOC)cc1,2.0%,0.3%
Cc1ccc(OC(C)C(=O)N2CCN(CCc3ccncc3)CC2)cc1C (stereo not given),-3.1%,1.2%
COc1ccc(NC(=O)c2oc3ccccc3c2NC(=O)Cc2cccs2)cc1,127%,6.8%
COc1cc(OC)c(OC)cc1CN1CCc2nc(N3CCN(C)CC3)ncc2C1,0.7%,-1.0%
COc1ccc(CNCc2ccccc2)cc1COc1ccc(NC(C)=O)cc1,0.1%,-0.4%
COc1ccc(-c2noc(N3CCC(C(=O)N(C)c4cc(Cl)ccc4OC)CC3)n2)cc1,2.2%,-0.9%
CCOC(=O)c1c(NC(=O)c2ccc(S(=O)(=O)N(CC(C)C)CC(C)C)cc2)sc2c1CCN(C(=O)OCC)C2,-0.4%,1.5%
CC(C)NC(=O)N1CCC(N2CCN(Cc3ccc(F)cc3)C(=O)C2=O)CC1,-0.2%,1.8%
CCOc1ccc(CCNC(=O)Cn2nc(-c3ccc(C)cc3)ccc2=O)cc1OCC,-3.4%,0.3%
CCN(CC)c1cc2c(cc1F)c(=O)c(S(=O)(=O)c1ccc(C)cc1)cn2Cc1ccc(F)cc1,13µM*,-1.2%
Cc1ccc(S(=O)(=O)N2CCCc3cc(NC(=O)c4ccc(F)c(F)c4)ccc32)cc1,-11%,3.2%
CCc1ccc(CNCc2c(C(=O)O)n(Cc3cccc(F)c3)c3cc(OC)ccc23)cc1,-22%,9.9%
CCCCC(CCCC)c1ccc(C=Nc2ccc(/C=C/c3ccnc4ccccc34)cc2)cc1,-3.3%,0.3%
CCSc1nnc(NC(=O)c2cc(=O)c3cc(C)ccc3o2)s1,0.9%,4.2%
O=[S+]([O-])([O-])c1ccc2c(c1)cc([S+](=O)([O-])[O-])c1nn(-c3ccc(/C=C/c4ccc(-n5nc6c([S+](=O)([O-])[O-])cc7cc([S+](=O)([O-])[O-])ccc7c6n5)cc4[S+](=O)([O-])[O-])c([S+](=O)([O-])[O-])c3)nc12,4.1%,1.0%
CCOC(=O)CNC(=O)Cn1nc(N2CCN(c3ccccc3)CC2)ccc1=O,-2.9%,-1.0%
CCOc1ccccc1NC(=O)CN1C(=O)CC(c2ccco2)Sc2ccccc21 (stereo not given),1.1%,5.7%

# Shown as labelled records: part of the list above.
> Cc1ccc2[nH]c(CSc3nnc(C)s3)cc(=O)c2c1
  ClpP mod: -0.3%	PINK1 expr mod: 2.1%
> COCCCNC(=O)c1sc2nc(C)c(C(=O)Nc3ccc(C)cc3C)c(-c3ccc(Br)cc3)c2c1N
  ClpP mod: -11%	PINK1 expr mod: 3.5%
> COc1cc2c(cc1OC)C(COc1ccc(F)cc1)N(C(=O)c1cccc(F)c1)CC2 (stereo not given)
  ClpP mod: -2.5%	PINK1 expr mod: -3.5%
> CCOc1ccc(NC(=O)CSc2oc(-c3ccco3)nc2S(=O)(=O)c2ccc(C)cc2)cc1
  ClpP mod: -2.8%	PINK1 expr mod: 2.8%
